Assay outcomes as filed in PubChem.
Sa growth inh = blocks Staphylococcus aureus growth | relative growth, % (concentration not given with the values) | S. aureus RN4220 growth, OD600, 20 h, 42 °C; stronger effect = lower value | hit rate 0.53% among 170,000;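 active = growth at 42 °C up to 50% and 20 or more points under that at 30 °C, or under 10% at both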;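 note: 300 nL library stock went into each well; scaled to the means of positive and negative controls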
HCMV UL50-53 inh = disrupts HCMV UL50-UL53 complex binding | HTRF UL50-UL53 interaction, normalized percent inhibition | inhibition, % (concentration not given with the values) | hit rate 0.15% among 190,000;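 active = both replicates at 50% or more, plus weaker picks with an unusually low signal ratio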;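 note: stock transfer was 100 nL into about 20 µL; 0% = negative control wells and 100% = wells with untagged competitor protein; inactives centre near -12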
GIV Gai3 FP = blocks GIV peptide binding to rat Galpha-i3; hit rate 0.42% among 210,000; percent of control (FP), % (test concentration not listed); Galpha-i3/FITC-GIV peptide fluorescence polarization, 90 min; stronger effect = lower value; scaled: aluminum fluoride 0%, vehicle 100%; P08753; AID 1224905;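 active = replicate mean at 85% of control or lower, very high polarization wells dropped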;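 note: wells of about 15 µL received 100 nL stock; the first replicate is given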
Target sequence (P08753 whole entry, looked up): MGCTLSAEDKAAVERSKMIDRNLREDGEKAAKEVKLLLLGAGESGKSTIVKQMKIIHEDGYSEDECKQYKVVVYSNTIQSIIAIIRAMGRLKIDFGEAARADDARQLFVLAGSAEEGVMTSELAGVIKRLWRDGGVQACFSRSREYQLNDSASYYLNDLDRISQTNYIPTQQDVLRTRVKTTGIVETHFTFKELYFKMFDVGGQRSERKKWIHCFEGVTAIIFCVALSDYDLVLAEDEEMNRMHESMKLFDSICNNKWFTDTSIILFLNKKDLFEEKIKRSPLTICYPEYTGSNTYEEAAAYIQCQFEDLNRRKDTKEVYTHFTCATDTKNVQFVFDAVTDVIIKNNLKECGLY
Sa growth inh second temp = also measured in Sa growth inh; calls as there; relative growth, %; measured here: growth at 30 °C;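 optical density after 20 h as mean of two plates; 100% = untreated growth and lower means inhibition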
The depositor's hits bear a star; / = not tested or not shown; & = joins results of further samples.

item | SMILES | Sa growth inh | Sa growth inh second temp | HCMV UL50-53 inh | GIV Gai3 FP
1 | Cn1c(=O)n(C)c2cc(CNC3C4CC5CC(C4)CC3C5)ccc21 (centres undefined) | 109 | 100 | 15 | 105
2 | Cc1nc2c(C(=O)NCCC(C)C)cnn2c(C)c1Cc1c(F)cccc1Cl | 84 | 86 | / | 101
3 | O=C(O)CSc1cccc(C(F)(F)F)c1 | 100 | 86 | -15 | 104
4 | CC(=O)c1ccc(NC(=O)CSc2cn(CC(=O)N(C(C)C)C(C)C)c3ccccc23)cc1 | 96 | 97 | / | 102
5 | Nc1nc(N)c2nc(CNc3ccc(C(=O)NC(CCC(=O)O)C(=O)O)cc3)cnc2n1 (centres undefined) | / | / | -162 | 88
6 | N#CC(C(=O)c1nc(N2CCN(Cc3ccccc3)CC2)ncc1Cl)c1nc2ccccc2c(=O)[nH]1 (centres undefined) | 97 | 87 | -3 | /
7 | COc1cc(NC(=O)CNc2cc(Cl)cc(Cl)c2)cc(OC)c1 | 108 | 95 | 17 | /
8 | COc1ccc(-c2[nH]ncc2C(=O)NC2CCCC2)cc1 | / | / | -10 | 108
9 | O=C(Nc1ccc2nc(CN3CCCCC3)[nH]c2c1)c1ccccc1F | 92 | 88 | -26 | 105
10 | CCCn1[nH]cc(SC)c(=O)c1=O | 65 | 55 | -8 | 104
11 | COCCCNC(=O)Cn1c(=O)n(-c2ccccc2)c(=O)c2c1c1cc(OC)ccc1n2C | 124 | 85 | / | 109
12 | CC(=O)Nc1ccc(F)cc1Br | 91 | 84 | / | 93
13 | COc1ccc(C2C(C(=O)N3CCCCC3)c3ccccc3C(=O)N2C)cc1 (centres undefined) | 92 | 96 | / | 94
14 | COc1ccc(N2C(=O)C(O)=C(c3ccccc3)C2c2ccc(Cl)cc2)cc1 (centres undefined) | / | / | -35 | 102
15 | CCCC(Nc1ccccn1)n1nnc2ccccc21 (centres undefined) | 94 | 88 | -23 | 104
16 | COc1cc(OC)cc(-n2c(=O)c3sccc3n(CC(=O)c3ccc(Cl)cc3)c2=O)c1 | 104 | 93 | / | 92
17 | Cc1cnc(C(=O)Nc2ccc(S(=O)(=O)N(C)C)cc2)cn1 | 92 | 84 | -12 | 102
18 | CCn1ccc(C(=O)Oc2ccc(C(C)C)cc2)n1 | 94 | 64 | -7 | 108
19 | COC(=O)c1ccc(NC(=O)Cn2ccn3nc(-c4ccc(OC)cc4)cc3c2=O)cc1 | 91 | 87 | / | 100
20 | CC1C(=O)NN=C1C(=O)N/N=C\c1cccnc1 (centres undefined) | 92 | 101 | -58 | 93
21 | O=C(NCCC1=CCCCC1)c1ccc2cc(-c3ccccc3)[nH]c2c1 | / | / | -26 | 107
22 | CSc1nc2ccc(S(=O)(=O)Nc3ccccc3C)cc2s1 | 106 | 104 | 18 | 108
23 | CN(Cc1ccccc1)C(=O)CCN1C(=O)c2cccc([N+](=O)[O-])c2C1=O | / | / | -72 | 99
24 | CCc1nn2c(=O)cc(COC(=O)c3ccccc3NC(=O)c3cccs3)nc2s1 | 91 | 92 | / | 102
25 | Cc1ccc(S(=O)(=O)CCc2nnc(NC(=O)c3ccc(C)c([N+](=O)[O-])c3)s2)cc1C | / | / | -12 | 103
26 | COC(=O)c1cccc(Nc2c(-c3ccc(SC)cc3)nc3nc[nH]n23)c1 | 82 | 101 | / | 105
27 | CCC1=[N+](CC(=O)c2ccccc2)CCn2cccc21 | 79 | 105 | -25 | 121
28 | CC(=O)c1cccc(-n2c(=O)c3c4c(sc3n(CC(=O)c3ccc(Cl)cc3)c2=O)CN(C(C)=O)CC4)c1 | 98 | 89 | -8 | 107
29 | COC(=O)C1C(=O)C=C(Nc2ccc(F)cc2)CC1c1ccccc1 (centres undefined) | 105 | 89 | -3 | /
30 | COc1ccc(Cl)cc1S(=O)(=O)Nc1ccc2c(c1)COC2=O | 83 | 68 | / | 104
31 | N#CCSc1nsc(SCC#N)n1 | 105 | 89 | -21 | 103
32 | N#Cc1cnc(Sc2nc3ccccc3s2)nc1N | 111 | 85 | 37 | 98
33 | O=C(c1ccc2cnn(Cc3cccc(F)c3)c2c1)N1CCCCC1 | / | / | -45 | 102
34 | Fc1ccc(-c2nn3c(-c4ccc(Br)cc4)nnc3s2)cc1 | / | / | 11 | 108
35 | O=C(NCc1ccc(F)cc1)c1ccc(CSc2nc3ccncc3n2Cc2ccc(F)cc2)cc1 | 112 | 110 | -7&3 | 105&97
36 | CS(=O)(=O)CS(=O)(=O)Nc1ccc2c(c1)OCCO2 | 93 | 95 | -5 | 100
37 | COCCn1c(=O)[nH]c2cc(C(=O)NCc3ccc(OC(F)(F)F)cc3)ccc21 | 109 | 84 | -4 | 100
38 | Cc1cc(C(=O)CSc2nnc3n2CCCCC3)c(C)n1C1CCS(=O)(=O)C1 (centres undefined) | 95 | 94 | -17 | /
39 | CCCc1cc(C(=O)N2CCN(C(c3ccccc3)c3ccccc3)CC2)no1 | 92 | 90 | -13 | 97
40 | CCc1ccc(C2c3c(oc4ccc(C)cc4c3=O)C(=O)N2c2nc(C)c(C)s2)cc1 (centres undefined) | 96 | 102 | 0 | 106

Three compounds out of the list, arranged by count of non-hydrogen atoms, largest number first:
item | SMILES | Sa growth inh | Sa growth inh second temp | HCMV UL50-53 inh | GIV Gai3 FP
38 | Cc1cc(C(=O)CSc2nnc3n2CCCCC3)c(C)n1C1CCS(=O)(=O)C1 (centres undefined) | 95 | 94 | -17 | /
34 | Fc1ccc(-c2nn3c(-c4ccc(Br)cc4)nnc3s2)cc1 | / | / | 11 | 108
36 | CS(=O)(=O)CS(=O)(=O)Nc1ccc2c(c1)OCCO2 | 93 | 95 | -5 | 100

Carrying on.
item | SMILES | Sa growth inh | Sa growth inh second temp | HCMV UL50-53 inh | GIV Gai3 FP
41 | CC(=O)N1c2ccccc2C(=O)C1N(C)Cc1ccccc1 (centres undefined) | 88 | 67 | -28 | 106
42 | CC(=O)c1ccc(NS(=O)(=O)c2cc(-c3cnc(C4CC4)o3)ccc2C)cc1 | 100 | 87 | / | 102
43 | O=C(OCC(O)CN1CCN(c2ccccc2)CC1)c1ccccc1 (centres undefined) | 107 | 94 | -7 | 103
44 | Cc1ccc(NC(=O)C2=Cc3ccc(C)cc3OC=C2)c(C)c1 | / | / | -16 | 104
45 | COCC(=O)Nc1ccccc1C(C)C | 104 | 79 | -8 | 97
46 | COc1ccc(C(CC(=O)Nc2cc(OC)c(OC)c(OC)c2)N2Cc3ccccc3C2=O)cc1 (centres undefined) | 118 | 63 | / | 101
47 | CC(C)n1nnc2cc(S(=O)(=O)N(C)CC(=O)N3CCN(c4ccccn4)CC3)ccc21 | / | / | -14 | 115
48 | COc1ccc(C2C3=C(CC(C)(C)CC3=O)Nc3cc(OC)c(OC)cc32)cc1 (centres undefined) | 111 | 77 | -10 | /
49 | CC(=O)c1ccc(NC(=O)Cn2cc3c(n2)CCCC3)cc1 | 99 | 84 | -22 | 102
50 | Cc1ccc(CNc2nnc(C)c3nnn(Cc4ccc(F)cc4)c23)cc1 | 94 | 83 | -24 | 98
51 | CCCCCCOc1ccc(/C=C/C(=O)Nc2sc3c(c2C(=O)OC)CCC3)cc1OC | 106 | 88 | -41 | 96
52 | COCc1cc(C)nc2sc(C(=O)Nc3ccc(C(C)=O)cc3)c(N)c12 | 92 | 95 | -60 | 102
53 | COc1ccc(NC(=O)COc2ccc(C)cc2)cc1CN1CCn2c(nc3ccccc32)C1 | / | / | 5 | 98
54 | COc1ccc(-c2nonc2NC(=O)C(C)Oc2cc(C)cc(C)c2)cc1C (centres undefined) | / | / | 7 | 107
55 | CC(=O)N1c2ccc(S(=O)(=O)N3CCC(C(=O)NC(C)c4ccccc4)CC3)cc2CC1C (centres undefined) | / | / | -11 | 102
56 | CC(C)Cn1cc(NC(=O)N2CCCc3ccccc32)c2ccccc2c1=O | 113 | 85 | -35 | 98
57 | Cc1ccccc1-c1c2c(=O)n(C)c(=O)n(C)c2c2n1-c1cc(Cl)ccc1OC2 | / | / | 14 | 96
58 | CCOC(=O)C1CCN(C(=O)c2cc(-c3ccc(C)cc3)nc3ccccc23)CC1 | 92 | 90 | -8 | /
59 | CCOc1ccc(CC(=O)NC2CC(=O)N(c3ccc4c(c3)OCCO4)C2)cc1 (centres undefined) | 82 | 88 | / | 93
60 | CCCC(=O)Nc1ccc(N2CCn3c(nc4ccccc43)C2)cc1 | / | / | -21 | 107
61 | Cc1ccc2c(CC(=O)OC3CCOC3=O)coc2c1 (centres undefined) | 106 | 90 | -8 | /
62 | Cc1[nH]c(C)c2c(=O)n(C)ncc12 | 88 | 84 | -17 | 111
63 | O=C(NNC(=O)c1ccc(Br)cc1)NC1CCCCC1 | 86 | 93 | -29 | /
64 | CC(C)(C)NC(=O)c1ccc2c3c(onc13)-c1ccccc1C2=O | 53 | 35 | / | 103
65 | CC(=O)Nc1ccc(-n2c(N)c(C(=O)NC3CCCC3)c3nc4ccccc4nc32)cc1 | 67 | 35 | -15 | 99
66 | COc1cccc(NC(=O)C(C)N(c2ccccc2)S(C)(=O)=O)c1 (centres undefined) | 97 | 88 | -6 | 96
67 | Cc1cc(-c2ccc(C)c(S(=O)(=O)N(Cc3cccs3)C(C)C)c2)on1 | 81 | 89 | / | 104
68 | O=C(/C=C/c1ccco1)CC1(O)C(=O)N(Cc2ccccc2Cl)c2ccccc21 (centres undefined) | 80 | 50 | 3 | 123
69 | O=C(c1ccc2c(c1)OCO2)N1CCCC1c1ccccc1Cl (centres undefined) | / | / | -28 | 100
70 | O=C(O)CC1SC2=NCCN2C1=O (centres undefined) | 102 | 87 | -32 | 102

Complete entries as entered above. Order of values: Sa growth inh	Sa growth inh second temp	HCMV UL50-53 inh	GIV Gai3 FP
Entry for Cc1cc(-c2ccc(C)c(S(=O)(=O)N(Cc3cccs3)C(C)C)c2)on1 = 81	89	/	104
Entry for COc1cccc(NC(=O)C(C)N(c2ccccc2)S(C)(=O)=O)c1 (centres undefined) = 97	88	-6	96
Entry for O=C(NNC(=O)c1ccc(Br)cc1)NC1CCCCC1 = 86	93	-29	/
Entry for Cc1ccc2c(CC(=O)OC3CCOC3=O)coc2c1 (centres undefined) = 106	90	-8	/
Entry for CC(C)(C)NC(=O)c1ccc2c3c(onc13)-c1ccccc1C2=O = 53	35	/	103

As entered above:
COc1cccc(NC(=O)C(C)N(c2ccccc2)S(C)(=O)=O)c1 (centres undefined) in Sa growth inh shows 97
CC(=O)Nc1ccc(-n2c(N)c(C(=O)NC3CCCC3)c3nc4ccccc4nc32)cc1 in Sa growth inh second temp shows 35
O=C(c1ccc2c(c1)OCO2)N1CCCC1c1ccccc1Cl (centres undefined) in HCMV UL50-53 inh shows -28
O=C(O)CC1SC2=NCCN2C1=O (centres undefined) in GIV Gai3 FP shows 102
O=C(/C=C/c1ccco1)CC1(O)C(=O)N(Cc2ccccc2Cl)c2ccccc21 (centres undefined) in Sa growth inh second temp shows 50
O=C(NNC(=O)c1ccc(Br)cc1)NC1CCCCC1 in Sa growth inh second temp shows 93
Cc1cc(-c2ccc(C)c(S(=O)(=O)N(Cc3cccs3)C(C)C)c2)on1 in GIV Gai3 FP shows 104

Additional compounds follow:
item | SMILES | Sa growth inh | Sa growth inh second temp | HCMV UL50-53 inh | GIV Gai3 FP
71 | CC1CC(C)CN(CC(C)(C)NS(=O)(=O)c2ccccc2)C1 (centres undefined) | 137 | 87 | -10 | /
72 | CC1CCCC(C)N1CCNC(=O)C1C2C=CC3(CN(Cc4ccccc4Cl)C(=O)C13)O2 (centres undefined) | 93 | 74 | / | 103
73 | CC(=O)c1cccc(NC(=O)C2=CC(c3ccc(F)cc3)=NS(=O)(=O)N2C)c1 | 90 | 87 | -20 | 105
74 | CN(C)c1ccc(-c2nc(-c3ccncc3)no2)cc1[N+](=O)[O-] | 99 | 87 | -46 | 100
75 | CC1Cn2c(C(=O)Nc3ccc(Cl)cc3)cc3cccc(c32)S1 (centres undefined) | 115 | 120 | 12 | 111
76 | CC(=O)Nc1nnc(CC(C)(C)C)s1 | 86 | 83 | -12 | 96
77 | Cc1cc(C)n2nc(CN(C(=O)C3CCCCC3)c3ccccc3)nc2n1 | / | / | -8 | 103
78 | Cc1cc(C(=O)N2CCCC2c2cccc(F)c2)no1 (centres undefined) | / | / | -6 | 101
79 | CCCC1=Nc2cc(C(=O)NC(C)c3ccccc3)ccc2Sc2ccc(C)cc21 (centres undefined) | 114 | 74 | 5 | 105
80 | CC(C)CC(=O)n1nc(-c2ccco2)nc1NCc1ccc(Cl)cc1 | 97 | 91 | -37 | 101
81 | Cc1ccccc1-c1nc(CN2CCCC(C(=O)O)C2)c(C)o1 (centres undefined) | 102 | 103 | 2 | 103
82 | CCc1c(C)nc(SCC(=O)N2CCN(c3ccccc3OC)CC2)[nH]c1=O | 113 | 89 | -4 | 102
83 | O=C(Cn1c(=O)nc(-c2ccccc2)c2ccccc21)NCCCc1ccccc1 | 108 | 85 | -9 | 104

By substructure: the entries above with a tert-butyl group (two)
item | SMILES | Sa growth inh | Sa growth inh second temp | HCMV UL50-53 inh | GIV Gai3 FP
64 | CC(C)(C)NC(=O)c1ccc2c3c(onc13)-c1ccccc1C2=O | 53 | 35 | / | 103
76 | CC(=O)Nc1nnc(CC(C)(C)C)s1 | 86 | 83 | -12 | 96
